Bioassay records deposited in PubChem BioAssay by Broad Institute.
HIV Env fusion: blocks HIV Env-driven cell-cell fusion. HeLa-JRFL Env/CEM21 cell fusion, luciferase. inhibition, % at 12.3 µM. actives 1.1% (n = 360,000);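 active = mean replicate inhibition score of at least 50 and every replicate individually at or above 50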;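 note: 0% = plate neutral controls and 100% = maraviroc near 300 nM; one replicate is shown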
UUG fidelity: modulators of start codon recognition fidelity in yeast. S. cerevisiae UUG-firefly luciferase reporter, luminescence/redox ratio. activity score, % at 18.7 µM. actives 0.13% (n = 350,000). AID 602363;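 active = replicate mean at a twofold rise or more, about +100% in these data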;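 note: firefly luciferase made from a UUG start codon reports start codon fidelity; reporter light over untreated wells divided by growth signal over untreated wells; some hits fall short of that in this replicate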
* = called active by the depositor; [ ] = another dose, or the depositor's remark. A portion of the library. The share of hits here may be higher or lower than overall.

HIV Env fusion	UUG fidelity	SMILES
29[16.7 µM]	-2	O=C1N(CCS(=O)(=O)c2ccccc2)Cc2ccccc2C[C@@]12COC(c1ccc(OCCCO)cc1)=N2
30[16.7 µM]	-5	CO[C@@H]1CN(C)C(=O)c2ccc(NS(=O)(=O)c3ccccc3Cl)cc2OC[C@H](C)NC[C@H]1C
20[16.7 µM]	-12	C[C@@H]1CN([C@@H](C)CO)C(=O)c2cccc(N(C)C)c2O[C@H]1CN(C)Cc1ccc(C(=O)O)cc1
8[16.7 µM]	2	COc1ccc(S(=O)(=O)N(C)C[C@@H]2Oc3ncc(C#Cc4ccccc4)cc3C(=O)N([C@H](C)CO)C[C@@H]2C)cc1
6[16.7 µM]	-9	O=C(C[C@@H]1C=C[C@@H](NC(=O)c2cnccn2)[C@H](CO)O1)NCc1ccccc1F
6[16.7 µM]	16	C[C@H]1CN([C@@H](C)CO)C(=O)c2cc(C#CC3CCCCC3)cnc2O[C@H]1CN(C)C(=O)Cc1ccccn1
-2[16.7 µM]	12	COC(=O)c1cn(CC(=O)N2CCN(c3ccccc3)CC2)nn1
4[16.7 µM]	-2	Cc1ccc(S(=O)(=O)N(C)C[C@@H]2Oc3ccc(NC(=O)Nc4c(C)noc4C)cc3C(=O)N([C@@H](C)CO)C[C@@H]2C)cc1
13[16.7 µM]	-8	CN(C)C(=O)C[C@H]1C[C@@H]2c3cc(NS(=O)(=O)c4ccc(F)cc4)ccc3O[C@@H]2[C@H](CO)O1
0[16.7 µM]	-5	CN(C)C(=O)c1ccc(-c2ccc([C@@H]3[C@@H](C#N)N(C(=O)Cc4ccccn4)[C@H]3CO)cc2)cc1
3[16.7 µM]	5	COc1ccc(NC(=O)Nc2ccc3c(c2)C(=O)N([C@H](C)CO)C[C@@H](C)[C@@H](CN(C)C(=O)Nc2ccccc2)O3)cc1
12[16.7 µM]	-9	C[C@@H]1CN([C@H](C)CO)C(=O)c2cc(/C=C/c3ccccc3)cnc2O[C@H]1CN(C)S(=O)(=O)c1ccccc1F
7[16.7 µM]	3	C[C@@H]1CN([C@@H](C)CO)C(=O)c2cc(-c3ccc(F)cc3)cnc2O[C@H]1CN(C)C(=O)c1cccnc1
-22[16.7 µM]	10	C[C@@H]1CN([C@@H](C)CO)C(=O)Cc2cc(NC(=O)CCC(F)(F)F)ccc2O[C@@H]1CN(C)CC1CC1
15[16.7 µM]	7	CCCC#Cc1cnc2c(c1)C(=O)N([C@@H](C)CO)C[C@@H](C)[C@H](CN(C)C(=O)Nc1ccccc1F)O2
6[16.7 µM]	9	CC(=O)N(C)C[C@@H]1Oc2cc(C#Cc3ccncc3)ccc2S(=O)(=O)N([C@@H](C)CO)C[C@@H]1C
16[16.7 µM]	-2	C[C@H]1CN([C@@H](C)CO)C(=O)Cc2cc(NC(=O)Nc3ccc4c(c3)OCO4)ccc2O[C@H]1CN(C)Cc1ccc2c(c1)OCO2
-6[16.7 µM]	2	C[C@@H]1CCCCO[C@@H](CN(C)C(=O)C2CCCCC2)[C@@H](C)CN([C@H](C)CO)C(=O)c2cc(NC(=O)C3CCCCC3)ccc2O1
3[16.7 µM]	-19	CCC(=O)N[C@@H]1CC[C@@H](CC(=O)NCC2CCCCC2)O[C@H]1CO
-6[16.7 µM]	-20	C[C@@H]1CCCCO[C@@H](CN(C)C(=O)c2ccncc2)[C@@H](C)CN([C@H](C)CO)C(=O)c2cc(NS(C)(=O)=O)ccc2O1
5[16.7 µM]	-1	CN(C)CC(=O)N[C@@H]1CC[C@H](CCn2cc(C3CC3)nn2)O[C@@H]1CO
-29[16.7 µM]	5	COc1ccc(S(=O)(=O)Nc2ccc3c(c2)C(=O)N([C@@H](C)CO)C[C@@H](C)[C@@H](CN(C)S(=O)(=O)c2ccc(Cl)cc2)OCCCC[C@@H](C)O3)cc1
5[16.7 µM]	-3	C[C@@H]1CN([C@H](C)CO)C(=O)c2cc(C#C[C@@H](C)O)cnc2O[C@H]1CN(C)C(=O)c1ccccc1F
-4[16.7 µM]	1	Cc1ccc(S(=O)(=O)N(C)C[C@@H]2Oc3ccc(NS(=O)(=O)c4ccc(F)cc4)cc3C(=O)N([C@H](C)CO)C[C@H]2C)cc1
-18[16.7 µM]	8	Cc1ccc(S(=O)(=O)Nc2ccc3c(c2)C(=O)N([C@H](C)CO)C[C@@H](C)[C@@H](CN(C)C(=O)CCC(F)(F)F)OCCCC[C@@H](C)O3)cc1

Next section; it opens with the six that closed the last part.
HIV Env fusion	UUG fidelity	SMILES
-6[16.7 µM]	-20	C[C@@H]1CCCCO[C@@H](CN(C)C(=O)c2ccncc2)[C@@H](C)CN([C@H](C)CO)C(=O)c2cc(NS(C)(=O)=O)ccc2O1
5[16.7 µM]	-1	CN(C)CC(=O)N[C@@H]1CC[C@H](CCn2cc(C3CC3)nn2)O[C@@H]1CO
-29[16.7 µM]	5	COc1ccc(S(=O)(=O)Nc2ccc3c(c2)C(=O)N([C@@H](C)CO)C[C@@H](C)[C@@H](CN(C)S(=O)(=O)c2ccc(Cl)cc2)OCCCC[C@@H](C)O3)cc1
5[16.7 µM]	-3	C[C@@H]1CN([C@H](C)CO)C(=O)c2cc(C#C[C@@H](C)O)cnc2O[C@H]1CN(C)C(=O)c1ccccc1F
-4[16.7 µM]	1	Cc1ccc(S(=O)(=O)N(C)C[C@@H]2Oc3ccc(NS(=O)(=O)c4ccc(F)cc4)cc3C(=O)N([C@H](C)CO)C[C@H]2C)cc1
-18[16.7 µM]	8	Cc1ccc(S(=O)(=O)Nc2ccc3c(c2)C(=O)N([C@H](C)CO)C[C@@H](C)[C@@H](CN(C)C(=O)CCC(F)(F)F)OCCCC[C@@H](C)O3)cc1
2	-11	CCOc1ccc(S(=O)(=O)N2CCNC(=O)C2)cc1
-5[16.7 µM]	-5	COc1ccc(CNC(=O)C[C@@H]2C[C@H]3c4cc(NC(=O)CN(C)C)ccc4O[C@H]3[C@@H](CO)O2)cc1
2[16.7 µM]	-15	CCc1csc(N2[C@H](C#N)[C@H](c3ccc(-c4ccc(F)cc4)cc3)[C@H]2CO)n1
9[16.7 µM]	-3	C[C@@H]1CN([C@H](C)CO)C(=O)c2cc(NC(=O)c3ccncc3)ccc2O[C@@H](C)CCCCO[C@@H]1CN(C)Cc1ccc(C(=O)O)cc1
-1[16.7 µM]	12	N#C[C@@H]1[C@@H](c2ccccc2)[C@H](CO)N1C(=O)Cc1ccccn1
-24[16.7 µM]	0	C[C@@H]1CN([C@H](C)CO)C(=O)c2cccc(NC(=O)Nc3ccccc3)c2O[C@H]1CN(C)S(=O)(=O)c1cccs1
9[16.7 µM]	-11	COc1cccc(-c2cnc3c(c2)C(=O)N([C@H](C)CO)C[C@@H](C)[C@@H](CN(C)C(C)=O)O3)c1
-30[16.7 µM]	-6	C[C@@H]1CN([C@@H](C)CO)C(=O)c2cccc(NC(=O)Nc3ccc(C(F)(F)F)cc3)c2O[C@@H]1CN(C)Cc1ccc(C(=O)O)cc1
13[16.7 µM]	7	C[C@@H]1CN([C@H](C)CO)C(=O)c2cc(NS(=O)(=O)c3ccccc3)ccc2O[C@@H]1CN(C)Cc1ccccc1
-11[16.7 µM]	4	C[C@@H]1CCCCO[C@H](CN(C)Cc2ccc(C(=O)O)cc2)[C@H](C)CN([C@H](C)CO)C(=O)c2cc(NS(=O)(=O)c3ccccc3)ccc2O1
2[16.7 µM]	13	C[C@@H]1CN([C@@H](C)CO)C(=O)Cc2cc(NC(=O)Cn3cnnn3)ccc2O[C@@H]1CN(C)S(=O)(=O)c1cccs1
5[16.7 µM]	1	C[C@@H]1CN([C@@H](C)CO)C(=O)c2cc(/C=C/c3ccccc3)cnc2O[C@H]1CN(C)Cc1cccnc1
-41[16.7 µM]	5	C[C@H]1CN([C@@H](C)CO)C(=O)Cc2cc(NC(=O)Cc3ccccc3)ccc2O[C@H]1CN(C)Cc1ccc(-c2ccccc2)cc1
-26[16.7 µM]	-4	O=C(C[C@H]1C=C[C@@H](NS(=O)(=O)c2ccccc2)[C@H](CO)O1)NCCN1CCCCC1
9[16.7 µM]	-16	O=C(C[C@@H]1C=C[C@H](NC(=O)c2ccc(F)cc2)[C@@H](CO)O1)NCCc1ccncc1
11[16.7 µM]	19	C[C@@H]1CN([C@@H](C)CO)C(=O)c2cc(NC(=O)C3CCCCC3)ccc2O[C@@H](C)CCCCO[C@@H]1CN(C)Cc1ccc(C(=O)O)cc1
-8[16.7 µM]	13	C[C@H](CO)N1C[C@H](C)[C@@H](CN(C)C(=O)CCCN(C)C)OCCCC[C@H](C)Oc2ccc(NC(=O)Nc3cccc4ccccc34)cc2C1=O
-6[16.7 µM]	6	C/C=C/c1ccc2c(c1)O[C@@H](CN(C)C(=O)CC1CC1)[C@@H](C)CN([C@H](C)CO)S2(=O)=O
82*[16.7 µM]	-9	O=C(C[C@H]1C[C@@H]2c3cc(NC(=O)C4CCOCC4)ccc3O[C@@H]2[C@@H](CO)O1)NCc1ccccc1F
-3	-13	Cc1ccc(NC(=O)CN(C)C(=O)C2CCC2)cc1
1[16.7 µM]	-9	Cc1noc(C)c1NC(=O)N(C)C[C@@H]1OCCCC[C@H](C)Oc2ccc(NC(=O)Nc3cccc4ccccc34)cc2C(=O)N([C@H](C)CO)C[C@@H]1C
6[16.7 µM]	-9	C[C@H](CO)N1C[C@H](C)[C@H](CN(C)Cc2ccc3c(c2)OCO3)Oc2ccc(NC(=O)C3CC3)cc2C1=O
11[16.7 µM]	-3	C[C@@H]1CN([C@H](C)CO)S(=O)(=O)c2ccc(/C=C/c3ccccc3)cc2O[C@@H]1CN(C)C(=O)c1ccncc1
12[16.7 µM]	1	CC(C)CC#Cc1ccc2c(c1)O[C@H](CN(C)CC1CCOCC1)[C@@H](C)CN([C@@H](C)CO)S2(=O)=O
-11[16.7 µM]	-14	COc1cccc(NC(=O)N[C@H]2C=C[C@@H](CC(=O)Nc3ccccc3)O[C@H]2CO)c1
-14[16.7 µM]	12	C[C@H](CO)N1C[C@H](C)[C@H](CN(C)S(=O)(=O)c2ccc(Cl)cc2)Oc2c(NC(=O)C3CCCCC3)cccc2C1=O
15[16.7 µM]	7	C[C@@H]1CN([C@@H](C)CO)C(=O)c2cc(N(C)C)ccc2O[C@@H]1CN(C)S(=O)(=O)c1cccs1
-4[16.7 µM]	21	COc1ccccc1NC(=O)N[C@@H]1CC[C@H](CCNS(=O)(=O)c2ccc(F)cc2)O[C@H]1CO
14[16.7 µM]	-13	C[C@@H]1CCCCO[C@H](CN(C)C(=O)Nc2cccc3ccccc23)[C@@H](C)CN([C@H](C)CO)C(=O)c2cc(NC(=O)CCCCCC(=O)Nc3ccccc3N)ccc2O1
8[16.7 µM]	-21	C[C@H]1CCCCO[C@@H](CN(C)S(=O)(=O)c2cccs2)[C@@H](C)CN([C@@H](C)CO)C(=O)c2cc(NC(=O)Nc3ccc4c(c3)OCO4)ccc2O1
9[16.7 µM]	1	CN1C(=O)c2cc(NC(=O)Nc3ccc(Cl)cc3)ccc2OC[C@H]2O[C@@H](CC(=O)O)CC[C@@H]21
0[16.7 µM]	4	C[C@@H]1CN([C@H](C)CO)C(=O)c2cccc(NS(=O)(=O)c3cn(C)cn3)c2O[C@H]1CN(C)CC1CCCCC1
5[16.7 µM]	2	COc1ccc(CNC(=O)C[C@@H]2C=C[C@H](NC(=O)c3cccc(F)c3)[C@@H](CO)O2)cc1
-2[16.7 µM]	26	C[C@@H]1CN([C@@H](C)CO)C(=O)c2cc(/C=C/c3ccccc3)cnc2O[C@@H]1CN(C)S(C)(=O)=O
5[16.7 µM]	12	CC(=O)N(C)C[C@H]1Oc2ncc(C#CCc3ccccc3)cc2C(=O)N([C@@H](C)CO)C[C@@H]1C
-14[16.7 µM]	1	C[C@@H]1CN([C@@H](C)CO)C(=O)c2cc(-c3ccc(C#N)cc3)cnc2O[C@H]1CN(C)Cc1ccncc1
-34[16.7 µM]	-4	C[C@@H]1CCCCO[C@@H](CN(C)S(=O)(=O)c2cccs2)[C@@H](C)CN([C@@H](C)CO)C(=O)c2cc(NS(=O)(=O)c3ccccc3)ccc2O1
17[16.7 µM]	5	C[C@@H]1CN([C@H](C)CO)C(=O)c2cc(NC(=O)Nc3cccc4ccccc34)ccc2O[C@@H](C)CCCCO[C@H]1CN(C)Cc1ccc(C(F)(F)F)cc1
2[16.7 µM]	10	C[C@@H]1CCCCO[C@@H](CN(C)C(=O)CCC(F)(F)F)[C@@H](C)CN([C@@H](C)CO)C(=O)c2cc(N(C)C)ccc2O1
13[16.7 µM]	9	CN1C(=O)c2cc(NC(=O)C3CCCCC3)ccc2OC[C@@H]2O[C@H](CC(=O)NC3CCCC3)CC[C@H]21
-3[16.7 µM]	0	C[C@H](CO)N1C[C@H](C)[C@@H](CN(C)CC2CCCCC2)Oc2ccc(NS(=O)(=O)c3cn(C)cn3)cc2CC1=O
3[16.7 µM]	5	CC(C)NC(=O)N(C)C[C@@H]1Oc2ccc(NC(=O)Nc3ccc(C(F)(F)F)cc3)cc2CC(=O)N([C@@H](C)CO)C[C@@H]1C
-55[16.7 µM]	-3	C[C@@H]1CCCCO[C@@H](CN(C)C(=O)c2ccccc2)[C@@H](C)CN([C@H](C)CO)C(=O)c2cc(NS(C)(=O)=O)ccc2O1
19[16.7 µM]	-6	COc1ccc(S(=O)(=O)Nc2cccc3c2O[C@@H](CN(C)S(=O)(=O)c2cccs2)[C@H](C)CN([C@@H](C)CO)C3=O)cc1
11[16.7 µM]	12	O=S(=O)(N[C@@H]1CC[C@H](CCn2cc(-c3ccc(F)cc3)nn2)O[C@H]1CO)c1ccccc1F
